Screening results: PubChem, several laboratories
Ecoli growth: E. coli growth inhibition. Escherichia coli growth, OD600, 23 h; hits give low values. OD600 absorbance (test concentration not listed). 0.21% of 330,000 active;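 active = OD600 absorbance below the run mean of sample wells minus 3.6 SD, in any replicate, cut at about 0.56 in these data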;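 note: stock transfer was 300 nL into about 60 µL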
UCH37 DUB inh: inhibitors of human deubiquitinating enzyme UCH37; Q9Y5K5; purified proteasome/UCH37, Ub-AMC cleavage fluorescence; inhibition, % (concentration not given with the values); 0.33% of 330,000 active; AID 588478;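 active = mean of two replicates above 20%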;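 note: 0% = compound-free wells with enzyme and 100% = wells lacking proteasome; stock transfer was 100 nL into about 20 µL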
Target sequence (Q9Y5K5 whole entry, looked up): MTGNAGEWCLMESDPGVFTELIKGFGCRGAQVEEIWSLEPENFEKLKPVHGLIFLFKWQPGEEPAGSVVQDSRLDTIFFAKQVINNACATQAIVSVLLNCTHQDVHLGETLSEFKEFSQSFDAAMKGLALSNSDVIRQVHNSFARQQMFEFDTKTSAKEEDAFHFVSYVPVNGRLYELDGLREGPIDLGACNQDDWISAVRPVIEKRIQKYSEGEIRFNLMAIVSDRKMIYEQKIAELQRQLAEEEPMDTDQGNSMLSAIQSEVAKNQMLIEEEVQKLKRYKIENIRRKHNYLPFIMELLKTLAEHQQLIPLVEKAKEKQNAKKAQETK
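System: Proteasome-associated human UCH37 deubiquitinase; Input: 0.15 nM proteasome in added enzyme buffer; Also added: Ub-AMC substrate from 1 µM stock; Incubation: 30 min compound-proteasome preincubation then 25 min substrate reaction, room temperature; Detection: fluorescence, ex 355 nm, em 460 nm; Read-out: % inhibition of Ub-AMC cleavage fluorescence; Benchmarks: no-proteasome and no-compound wells.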
HNF4A DNA FP: change in binding of human HNF4 alpha to DNA; P41235; HNF4a-FITC DNA binding, fluorescence polarization, 1 h; activity change, % at 10 µM; 0.3% of 360,000 active; AID 1224865; in the data active = activity change above about 30%, passing the limit was not always enough;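 note: controls were the assay level and a saturating level of protein; the project sought stronger binding though the title names inhibitors; some compounds called inactive have numbers as strong as hits; positive values seem to mean higher polarization but the record does not say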
Vif TR-FRET: inhibitors of Vif binding to APOBEC3G peptide, primary screen, biochemical, TR-FRET, GST-Vif 1-94, biotin-A3G peptide, dose response retest (AID 1117319). 0.57% of 260,000 active. one-dose inhibition, %; IC50 in µM for titrated hits. TR-FRET GST-Vif / biotin-A3G peptide binding; higher % means a stronger effect; test concentration not given here; strong numbers were not always called active;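 active = above the screen mean plus three standard deviations and confirmed in dose response; inconclusive = results disagree or hit not tested in dose response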;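 note: Vif residues 1-94 fused to GST binding biotinylated APOBEC3G peptide 110-148; 0% = full assay without inhibitor and 100% = GST in place of GST-Vif; retest series ran down from 100 µM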
FGF22 binding: FGF22 (human) thermal shift binding; 1.5% of 340,000 active; recombinant FGF22 thermal shift, SYPRO orange fluorescence; percent of sucrose octasulfate shift, DMSO zero; AID 651658; calls only at 9.99 µM; Q9HCT0;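 active = melting point raised past a set limit in the mean and every replicate; inconclusive = no clear call; three in four hits are not shown here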
Target sequence (Q9HCT0 whole entry, looked up): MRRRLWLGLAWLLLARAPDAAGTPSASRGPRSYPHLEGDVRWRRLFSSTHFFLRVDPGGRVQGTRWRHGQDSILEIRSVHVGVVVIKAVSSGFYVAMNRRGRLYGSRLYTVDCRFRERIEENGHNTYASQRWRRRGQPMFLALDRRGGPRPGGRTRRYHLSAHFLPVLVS
RanGTP-Imp inh: inhibitors of RanGTP-importin-beta interaction, primary screen, biochemical, FRET, CFP-Ran, YFP-importin-beta, homogeneous. cell-free CFP-Ran/YFP-importin-beta FRET ratio. inhibition, % (concentration not given with the values). 1.1% of 300,000 active. AID 2216;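 active = most replicates above 15%; inconclusive = exactly half above 15%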;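 note: 0% = DMSO wells and 100% = Ran loaded with GDP instead of GTP; wells of about 40 µL received 100 nL stock; the first replicate is given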
MLL AF4-AF9 inh: MLL-AF4/AF9 protein interaction inhibition; AlphaScreen, biotin-AF4 peptide binding to FLAG-AF9; inhibition, % at 10 µM; 0.47% of 350,000 active; AID 651704;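 active = every replicate reaching a set inhibition limit, whatever the replicate mean, cut at about 25% in these data; inconclusive = mean inhibition reaches that limit but some replicates miss it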;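 note: 0% = plate neutral control median and 100% = total signal loss; the record names both 10 and 1 µM as test concentration; the first replicate is given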
Target sequence (P42568 whole entry, looked up): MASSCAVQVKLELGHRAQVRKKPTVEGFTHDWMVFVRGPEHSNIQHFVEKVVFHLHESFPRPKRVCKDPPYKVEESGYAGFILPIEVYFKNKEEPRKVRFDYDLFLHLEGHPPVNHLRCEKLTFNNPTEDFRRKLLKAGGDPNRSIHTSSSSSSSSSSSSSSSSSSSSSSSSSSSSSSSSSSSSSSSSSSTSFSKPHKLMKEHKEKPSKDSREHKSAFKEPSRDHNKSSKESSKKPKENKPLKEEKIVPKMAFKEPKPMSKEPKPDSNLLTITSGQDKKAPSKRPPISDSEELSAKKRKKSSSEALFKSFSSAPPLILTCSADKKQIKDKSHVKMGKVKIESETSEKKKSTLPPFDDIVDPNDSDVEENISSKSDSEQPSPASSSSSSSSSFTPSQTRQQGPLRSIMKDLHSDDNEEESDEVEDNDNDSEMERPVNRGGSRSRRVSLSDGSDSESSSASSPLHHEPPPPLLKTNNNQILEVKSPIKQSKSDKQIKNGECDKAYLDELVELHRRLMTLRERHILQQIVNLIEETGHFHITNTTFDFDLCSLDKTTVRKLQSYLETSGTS
* hit, by the source's call; i = inactive; ? = inconclusive; . = no result given; & = joins results of further samples.

SMILES	Ecoli growth	UCH37 DUB inh	HNF4A DNA FP	Vif TR-FRET	FGF22 binding	RanGTP-Imp inh	MLL AF4-AF9 inh
O=C(CSc1ncccc1-c1nc2ccccc2[nH]1)N1CCCCC1	0.75	-17	8.3	4%	i	-9.5	-0.6
OCCNc1ncnc2c1ncn2[C@H]1CN(Cc2ccc(Cl)cc2)C[C@@H](CO)O1	.	.	4.8	.	i	.	0.2
NC(=O)C1CCN(CC(=O)Nc2ccc3c(c2)OCO3)CC1	.	.	-1.7	.	i	.	-31
S=C(NCc1ccccc1)NCC1COc2ccccc2O1 (stereo unspecified)	0.64	1.8	-4.4	1%	.	3.7	.
COc1ccc(CCC(=O)Nc2cc3c4c(c2)CCC(=O)N4CCC3)cc1	0.69	0.6	0.2	4%	i	0.2	2.7
COc1ccc(S(=O)(=O)N2CCCC2CNC(=O)C(=O)Nc2ccc(F)cc2)cc1 (stereo unspecified)	0.62	3.6	1.6	-10%	i	-1.5	1.3
O=C(OCc1cc2ccccc2[nH]c1=O)c1ccccc1	0.64	0.5	-2.1	-3%	.	2.5	.
Cc1ccc(Cl)cc1N1CCN(C(=S)NCc2ccco2)CC1	0.64	-0.5	-2.2	-4%	i	0.5	3.7
Cc1cc(C(=O)NN=C2C3CC4CC(C3)CC2C4)c2ccccc2n1	0.65	-1.4	3.5	24%	.	0.9	.
CCCCNC(=O)c1[nH]c(C)c(C(C)=O)c1C	0.68	6.1	34*	-2%	i	-0.4	2.0
Cc1ccccc1Nc1nnc(SCC(=O)c2c(N)n(C3CC3)c(=O)[nH]c2=O)s1	0.68	5.6	3.0	1%	i	.	0.8
CC12C(=O)N(c3ccc(C(=O)N4CCOCC4)cc3)C(=O)C1C1c3ccccc3C2c2ccccc21 (stereo unspecified)	.	.	.	4%	i	-3.7	-14

Single records (already shown). Screens in order: Ecoli growth | UCH37 DUB inh | HNF4A DNA FP | Vif TR-FRET | FGF22 binding | RanGTP-Imp inh | MLL AF4-AF9 inh
`Cc1ccc(Cl)cc1N1CCN(C(=S)NCc2ccco2)CC1` reads 0.64 | -0.5 | -2.2 | -4% | i | 0.5 | 3.7
`NC(=O)C1CCN(CC(=O)Nc2ccc3c(c2)OCO3)CC1` reads . | . | -1.7 | . | i | . | -31
`O=C(OCc1cc2ccccc2[nH]c1=O)c1ccccc1` reads 0.64 | 0.5 | -2.1 | -3% | . | 2.5 | .
`COc1ccc(CCC(=O)Nc2cc3c4c(c2)CCC(=O)N4CCC3)cc1` reads 0.69 | 0.6 | 0.2 | 4% | i | 0.2 | 2.7

Going on with the list.
SMILES	Ecoli growth	UCH37 DUB inh	HNF4A DNA FP	Vif TR-FRET	FGF22 binding	RanGTP-Imp inh	MLL AF4-AF9 inh
COc1ccccc1OCC(=O)Nc1ccc(O)cc1C(=O)O	0.71	-2.2	2.2	8%	.	-1.7	.
O=C(Oc1ccc2c(c1)CCC2)N1CCOCC1	0.66	5.1	-3.5	1%	.	-1.1	.
COc1cc(/C=C/C(=O)Nc2ccc(S(=O)(=O)Nc3ncccn3)cc2)ccc1OCC#N	0.71	7.3	5.8	.	i	.	1.4
CS(=O)(=O)N(CCc1ccccc1)CC(=O)N1CCN(c2ccccc2)CC1	0.67	3.4	4.1	1%	.	-0.4	.
COc1ccc(CC(=O)NC(C)CCc2ccccc2)cc1 (stereo unspecified)	0.66	-1.5	-3.2	1%	i	1.5	-0.9
Cc1noc(C)c1NC(=O)N(C)C[C@H]1Oc2ccc(NS(=O)(=O)c3ccccc3)cc2C(=O)N([C@H](C)CO)C[C@@H]1C	0.7	2.8	-1.9	.	i	.	-2.9&7.4
CCOn1c(=O)c(-c2ccc(Br)cc2)[n+]([O-])c2ccccc21	0.68	-8.3	2.6	-6%	i	7.2	0.4
COc1cc(C(=O)OCC(=O)N2CCOCC2)c([N+](=O)[O-])cc1OC	0.67	6.9	0.2	-5%	i	-0.3	-1.3
Cc1cnc(-c2nnc(N(C)C(=O)C3CCOC3)s2)cn1 (stereo unspecified)	0.7	-24	1.3	-1%	.	-7.3	.
COc1ccc(NC(=S)Nc2cccc([N+](=O)[O-])c2)cc1	0.72	1.5	-1.2	-9%	.	8.4	.
Cn1cc(-c2ccc3c(c2)OCO3)c2ccccc21	.	.	-1.1	.	i	.	8.6
COc1cc(OC)cc(C(=O)N[C@H](C(=O)Nc2ccc(NC(C)=O)cc2)C(C)C)c1	0.69	0.1	-1.7	.	.	1.3	-1.9
O=C(COc1cc2oc(=O)c3c(c2cc1Cl)CCC3)NCCN1CCOCC1	0.67	3.7	-4.5	.	i	4.0	0.3
COc1ccc(N2C(=O)CC(NC3CC3)C2=O)cc1 (stereo unspecified)	0.77	-3.4	8.7	-2%	.	0.8	.
COCCCNC(=O)C1C2C=CC3(CN(Cc4ccc(C)cc4)C(=O)C13)O2 (stereo unspecified)	0.64	-0.7	-2.0	-2%	i	0.3	-17
Cc1cc(CN2CCC(n3nccc3NC(=O)c3ccccc3Cl)CC2)cc(C)c1O	0.74	1.7	0.1	.	i	1.6	0.2
O=C(NOCc1ccccc1)c1cccc([N+](=O)[O-])c1	0.7	1.9	-3.3	-2%	i	.	-0.2
CCOc1ccc(S(N)(=O)=O)cc1-c1nc2c(C(C)(C)C)nn(C)c2c(=O)[nH]1	0.67	1.7	-0.9	-1%	.	-1.2	?
O=C(Cn1cc(C(F)(F)F)ccc1=O)N/N=C/c1ccc(Cl)cc1Cl	.	.	4.1	15%	.	1.1	.
Cc1ccc(NC2=C([N+](=O)[O-])CS(=O)(=O)C2)cc1	0.64	6.8	3.6	11%	.	2.8	.
NC(=O)c1c(Nc2nc3c(F)cccc3s2)sc2c1CCCC2	0.62	-161	87	.	.	154*	.
O=C(c1ccc(C(F)(F)F)cc1)n1ccc(-c2cccs2)n1	0.69	2.7	5.4	?	i	1.1	.
Cc1nc(C)c(C(=O)NCCC(c2ccccc2)c2ccccc2)o1	0.72	1.8	-0.1	5%	i	-0.2	-8.8
Cc1cccc(C)c1Nc1c(-c2ccccc2O)nc2ncccn12	0.69	5.0	8.6	-3%	i	0.3	-23
Cc1cccc(C(=O)NCC(=O)N(C)CC(=O)Nc2ccc(N3CCOCC3)cc2)c1	0.72	7.5	-1.8	-2%	i	5.2	-1.1
CCOc1ccc(CN2CCSCC2)cc1	0.62	5.5	0.0	-9%	i	1.1	-3.8
COc1cc(Br)c(-c2sc(Nc3ccccc3)n[n+]2-c2ccccc2)cc1OC	0.7	2.5	1.5	.	i	-1.6	7.4
O=C(O)CN(CC(=O)O)CC(=O)O	.	0.0	2.7	.	i	.	-7.3
CCOC(=O)c1c(CN2CCOCC2)oc2ccc(OC)cc12	0.7	4.4	4.2	0%	.	?	.
CCCCN(CCO)CCCC	0.67	-0.9	3.8	.	i	.	.
C=COCCn1c(-c2nonc2N)nc2ccccc21	0.7	-0.3	8.5	6%	.	1.3	.
CCCc1cc(=O)[nH]c(SCC(=O)Nc2nc(-c3ccccc3)cs2)n1	0.72	4.4	0.3	3%	i	-0.5	-1.1
Nc1c(-c2ccccc2)c(CSc2nc3ccccc3[nH]2)nn1-c1ccc(C(=O)O)cc1	0.69	1.8	1.9	9%	i	-3.6	1.0
CC(C)CC(=O)Nc1nnc(S(=O)(=O)N2CCCCCC2)s1	0.72	1.0	1.1	-3%	i	17	-1.9
COC(=O)c1cnc(N2CCOCC2)nc1C(F)(F)F	0.66	6.2	2.9	3%	i	-2.3	.
O=C1NC(Cc2ccc(O)cc2)c2nc3cc(Cl)ccc3c(=O)n2-c2ncccc21 (stereo unspecified)	.	.	-1.6	9%	i	.	4.0
COc1ccccc1C(=O)OCC(=O)Nc1cccc(S(=O)(=O)N2CCCC2)c1	0.66	5.0	1.4	-6%	i	.	-15
CSc1cccc(CN2CCC(Oc3ccc(C(=O)N4CCCCC4)cc3)CC2)c1	0.66	0.9	-0.5	.	i	-1.8	11
O=C(O)CSc1cn(Cc2ccccc2)c2ccccc12	0.66	2.3	-1.1	-1%	i	3.0	-9.2
CS(=O)(=O)Nc1cccc(C2=NN(C(=O)c3ccccc3)C(c3cccs3)C2)c1 (stereo unspecified)	0.7	2.9	-3.2	-2%	i	-2.0	0.2
CCCCn1c(-c2ccc(Cl)c(Cl)c2)nc2cc3[nH]c(=O)c(C(C)C)nc3cc21	0.7	-22	14	.	i	6.4	4.6
Cc1cc(C)n2nc(-c3ccsc3-n3c(C)ccc3C)cc2n1	0.72	1.1	32	16%	.	2.0	.
Cc1ccc2nc(N(CCN(C)C)C(=O)C3CCN(S(=O)(=O)c4cccs4)CC3)sc2c1	.	.	-1.9	.	i	.	11
O=C(COC(=O)COc1ccc(Cl)cc1Br)NCCC1=CCCCC1	0.67	2.5	2.2	7%	i	.	-1.8
COc1ccc2[nH]c(=O)c(CN(C(=O)c3ccco3)C3CCCCC3)cc2c1	0.73	-42	-1.1	-1%	.	0.4	.
C=CCN1C(=O)/C(=C2/Sc3ccc(OC)cc3N2C)SC1=Nc1cccc(O)c1	0.71	-27	47*	-23%	.	7.1	-2.2
O=C(NCc1ccco1)c1ccc(COc2ccc(Cl)cc2)cc1	0.71	4.0	-2.9	.	.	?	.
Cc1ccc(C(=O)N2CCCC(Nc3ccc(C)c(C)c3)C2)c(=O)[nH]1 (stereo unspecified)	0.68	1.4	-1.6	.	i	-1.6	-15
O=C(c1cccs1)N1CCN(CCCc2ccccc2)CC1	0.66	5.6	0.1	1%	.	?	.
COc1ccc(C2N3CC4(C)CN2CC(C)(C3)C4O)cc1OC (stereo unspecified)	0.69	3.0	3.5	16%	.	-4.8	.
Cc1ccc(Nc2ccc(S(=O)(=O)N3CCOCC3)cc2[N+](=O)[O-])cc1C	0.64	4.1	0.2	1%	.	1.7	.
Cc1ccc(S(=O)(=O)N(C)C)cc1NC(=O)c1ccc(-n2cncn2)c([N+](=O)[O-])c1	0.72	1.6	0.5	1%	i	.	-2.7
OCCOCCNc1ncnc2c1cnn2-c1ccccc1	0.79	1.9	0.4	1%	.	3.0	.
Cc1nc(N2CCC(C)CC2)c2c(C)c(C(=O)Nc3cc(F)ccc3C)sc2n1	0.73	1.3	2.6	-7%	.	1.2	0.2
Cc1ccc(-n2nnnc2SCc2ccccn2)cc1C	0.77	0.5	0.1	74%	.	4.7	.
C/C=C/C=C\C(=O)Nc1cccc(C2=NOC3(C2)C[C@H](C(N)=O)N(C(=O)/C=C/C)C3)c1 (stereo partly specified)	.	1.1	-12	12%	i	-6.0	-9.0
COc1cc(OC)cc(C(=O)Nc2nc(CC(=O)NCc3ccc(F)cc3)cs2)c1	0.63	-27	1.4	-6%	i	?	4.1
CC(=O)c1cccc(NC(=O)c2cc(=O)[nH]c3ccccc23)c1	0.71	3.6	1.2	-6%	i	-0.7	0.5
CC(NC(=O)C1CCN(CCOc2ccc(Cl)cc2)CC1)c1cccc2ccccc12 (stereo unspecified)	.	.	-3.2	.	i	.	-0.4
Nc1nc(SCc2ccc3c(c2)OCCO3)n[nH]1	0.68	-1.5	-1.5	?	.	-4.5	.
Next records
SMILES	Ecoli growth	UCH37 DUB inh	HNF4A DNA FP	Vif TR-FRET	FGF22 binding	RanGTP-Imp inh	MLL AF4-AF9 inh
COc1ccc(CCNC(=O)c2c(O)c3c([nH]c2=O)CCCC3)cc1OC	0.78	3.8	0.2	.	.	.	.
CC(=O)Nc1ccc(NC(=O)[C@H](C)NC(=O)c2ccco2)cc1	0.65	5.0	2.1	.	i	5.6	-5.9
Cc1ccc(C2(C)NC(=O)N(CC(=O)N(C)CC(=O)Nc3cccc4ccccc34)C2=O)cc1 (stereo unspecified)	0.65	0.5	0.6	2%	i	5.5	0.1
Cn1c(=O)n(C)c2cc(NC(=O)CSc3ccccc3)ccc21	0.65	0.9	1.0	.	i	2.3	-1.7

An excerpt; count on the stated rates, not on these rows.
